Vif A3G: inhibitors of Vif binding to APOBEC3G peptide, primary screen, biochemical, TR-FRET, GST-Vif 1-94, biotin-A3G peptide, dose response retest (AID 1117319); 260,000 tested, 0.57% active; inhibition, %; hits with a dose series show IC50 in µM; TR-FRET GST-Vif / biotin-A3G peptide binding; higher % means a stronger effect; test concentration not given here; strong numbers were not always called active;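 active = above the screen mean plus three standard deviations and confirmed in dose response; inconclusive = results disagree or hit not tested in dose response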;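 also: Vif residues 1-94 fused to GST binding biotinylated APOBEC3G peptide 110-148; 0% = full assay without inhibitor and 100% = GST in place of GST-Vif; retest series ran down from 100 µM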
rRNA inh HTS: reduced GFP signal of wild-type E. coli, primary screen, bacterial rRNA inhibitor project, GFP/RFP fluorescence, OD600, single point; GFP signal change (wild-type ribosome), % (test concentration not listed); E. coli WT GFP vs humanized-ribosome RFP mutants, 24 h; active compounds read low; DMSO median 0, no signal -100; 350,000 tested, 1.6% active; AID 720706, 2013;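 active = significant combined selectivity score with lowered wild-type GFP, culture density cut under 30%, mutant RFP and density less affected; inactive = any of these conditions unmet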; also: one replicate is shown; some compounds called inactive have numbers as strong as hits
FGF22 binding: binders of human FGF22 protein, primary screen, FGF22 synaptogenesis inhibitor project, biophysical, thermal shift, single point. recombinant FGF22 thermal shift, SYPRO orange fluorescence; percent of sucrose octasulfate shift, DMSO zero. calls only at 9.99 µM. 340,000 tested, 1.5% active. AID 651658, 2012;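 active = melting point raised past a set limit in the mean and every replicate; inconclusive = no clear call; three in four hits are not shown here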
Target sequence (Q9HCT0 whole entry, looked up): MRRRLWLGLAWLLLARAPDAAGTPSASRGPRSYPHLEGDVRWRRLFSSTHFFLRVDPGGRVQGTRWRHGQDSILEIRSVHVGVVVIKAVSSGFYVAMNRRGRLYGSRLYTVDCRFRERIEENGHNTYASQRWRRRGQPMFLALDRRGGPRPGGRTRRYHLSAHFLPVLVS
ALR H2O2 inh: inhibitors of human ALR sulfhydryl oxidase, primary screen, biochemical, H2O2 detection, HRP-luminol luminescence, single point | FAD-linked sulfhydryl oxidase ALR (Homo sapiens), P55789 | inhibition, % (test concentration not listed) | 290,000 tested, 3.8% active | purified ALR, DTT oxidation;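 active = mean and each replicate at 75% or more; inconclusive = only one of the two met; inactive = neither met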;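 also: stock transfer was 7.5 nL into about 7.5 µL; 0% = neutral wells and 100% = wells with inactivated enzyme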
Target sequence (P55789 whole entry, looked up): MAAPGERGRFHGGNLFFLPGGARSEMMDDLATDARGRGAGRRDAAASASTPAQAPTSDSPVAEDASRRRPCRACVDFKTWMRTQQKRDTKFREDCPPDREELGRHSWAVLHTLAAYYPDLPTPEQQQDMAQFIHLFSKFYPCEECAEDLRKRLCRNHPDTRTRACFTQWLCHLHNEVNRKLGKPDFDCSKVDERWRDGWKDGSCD
Ecoli growth: E. coli growth inhibition, primary screen, OD600; OD600 absorbance (no concentration beside the values); 330,000 tested, 0.21% active; Escherichia coli growth, 23 h; active compounds read low;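 active = OD600 absorbance below the run mean of sample wells minus 3.6 SD, in any replicate, cut at about 0.56 in these data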;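 also: stock transfer was 300 nL into about 60 µL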
AF4-AF9 inh: inhibitors of AF4 peptide binding to AF9, primary screen, biochemical, AlphaScreen, biotin-AF4 peptide, FLAG-AF9, single point | AID 651704, 2012 | 350,000 tested, 0.47% active | inhibition, % at 10 µM;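 active = every replicate reaching a set inhibition limit, whatever the replicate mean, cut at about 25% in these data; inconclusive = mean inhibition reaches that limit but some replicates miss it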;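 also: 0% = plate neutral control median and 100% = total signal loss; the record names both 10 and 1 µM as test concentration; the first replicate is given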
Target sequence (P42568 whole entry, looked up): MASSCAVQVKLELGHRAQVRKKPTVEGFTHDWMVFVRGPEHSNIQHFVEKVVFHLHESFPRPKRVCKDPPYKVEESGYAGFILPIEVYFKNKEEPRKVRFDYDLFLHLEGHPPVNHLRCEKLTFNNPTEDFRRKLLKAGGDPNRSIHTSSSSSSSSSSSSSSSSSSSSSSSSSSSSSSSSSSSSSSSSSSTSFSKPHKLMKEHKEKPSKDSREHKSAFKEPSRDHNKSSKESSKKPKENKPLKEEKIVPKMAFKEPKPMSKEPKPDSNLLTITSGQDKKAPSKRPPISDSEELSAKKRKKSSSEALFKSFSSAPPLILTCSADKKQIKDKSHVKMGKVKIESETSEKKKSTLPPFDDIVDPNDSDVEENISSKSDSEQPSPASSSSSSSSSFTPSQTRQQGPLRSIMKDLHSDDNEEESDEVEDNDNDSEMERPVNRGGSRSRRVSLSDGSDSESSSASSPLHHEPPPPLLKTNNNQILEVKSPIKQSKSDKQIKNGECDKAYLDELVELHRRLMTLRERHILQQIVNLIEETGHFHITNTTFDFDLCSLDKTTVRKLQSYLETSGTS
HNF4A DNA FP: change in binding of human HNF4A to DNA, primary screen, biochemical, fluorescence polarization, FITC-DNA; Hepatocyte nuclear factor 4-alpha (Homo sapiens), P41235; 1 h; activity change, % at 10 µM; 360,000 tested, 0.3% active; in the data active = activity change above about 30%, passing the limit was not always enough;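 also: controls were the assay level and a saturating level of protein; the project sought stronger binding though the title names inhibitors; some compounds called inactive have numbers as strong as hits; positive values seem to mean higher polarization but the record does not say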
rRNA inh HTS OD600: further read-out of rRNA inh HTS, marked with its call; OD600 change, %; measured here: OD600 growth;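 optical density of the mix in the first replicate; 0 = DMSO median and -100 = no signal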
rRNA inh HTS RFP: also measured in rRNA inh HTS; calls as there; RFP signal change, %; measured here: RFP humanized mutant strains;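 first replicate; 0 = DMSO median and -100 = no signal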
Active calls of the source: *; i = inactive; ? = inconclusive; / = no result given; + = active, no number; & = joins results of further samples. Not all compounds are listed; rates above refer to the full screens.

SMILES	Vif A3G	rRNA inh HTS	rRNA inh HTS OD600	rRNA inh HTS RFP	FGF22 binding	ALR H2O2 inh	Ecoli growth	AF4-AF9 inh	HNF4A DNA FP
CCC(=O)N(C)CCc1cc2c(c(OC)c1/C=N/NS(=O)(=O)c1ccc(C)cc1)OCO2	-4.2%	-25.4*	-20.2*	-7.8*	i	54.4	/	2.6	3.5
CCOC(=O)C1=C(c2ccccc2)NC(SCC(=O)NC2CCCCC2)=C(C#N)C1c1ccco1 (stereo not drawn)	17.3%&2.6%	0.1	-3.4	-5.2	/	-2.1	0.716	?	-0.4
COc1ccc(Nc2nnc(SCC(=O)Nc3cc(C)on3)s2)cc1	4.4%	/	/	/	/	/	0.76	/	-2.0
COc1ccc(N(C=O)C(=S)SC)cc1	-1.9%	-2.5	-5.2	1.5	i	-6.4	0.617	0.1	-0.8
CCOc1ccc(-n2nc3ccc(NC(=O)CC)cc3n2)cc1	/	4.9	4.8	0.6	i	-6.1	0.676	0.7	-0.3
CCOc1ccc2nc(/N=C/c3c(C)[nH]n(-c4ccc(C)cc4)c3=O)sc2c1	/	8.8	8.9	3.5	i	0.6	/	-2.8	1.5
Cc1ccc(NC(=O)CC2S/C(=N/N=C3/NC(=O)CS3)NC2=O)cc1 (stereo not drawn)	8.4%	-2.2	11.7	1.8	i	-36.9	0.709	-0.9	2.4
Cc1ccccc1C(=O)OC(C)CN1CCOCC1 (stereo not drawn)	-3.6%	13.1	10.4	3.6	i	-9.8	0.695	-1.4	0.8
CC(C)(C)OC(=O)N1CCC(C(=O)O)CC1	-3.6%	/	/	/	/	-2.6	0.709	/	-1.3
CS(=O)(=O)N(CC(=O)Nc1ccc(S(=O)(=O)N2CCCC2)cc1)c1cccc(F)c1	0.5%	-5.1	-6.1	-5.1	i	-4.0	0.704	-1.7	2.9
C[C@@H]1CN([C@@H](C)CO)C(=O)c2cccc(NC(=O)Nc3ccc4c(c3)OCO4)c2O[C@H]1CN(C)C(=O)NC1CCCCC1	/	-5.6	-6.2	-1.7	i	/	/	-0.3	/
CC(C)(C)Cc1c(-c2ccc(C#N)cc2)nc2c(Cl)cc(C(F)(F)F)cn12	/	-0.5	14.8	-1.7	i	/	/	-1.3	-3.2
Cc1ccn2c(=O)c(NC(=O)c3cccs3)c(C)nc2c1	-1.7%	7.0	7.5	-3.4	i	17.1	0.607	5.2	3.5
OC[C@@H]1[C@@H](c2ccc(-c3ccccc3F)cc2)[C@H]2CN(Cc3cccnc3)CCCCN12	/	7.4	9.8	1.6	i	/	/	-0.1	/
CCCCCC1CCC(C(=O)N2CCOCC2)CC1 (stereo not drawn)	0.1%	1.6	-7.1	-0.1	i	-12.3	0.604	-0.8	-0.5
CCOc1ccccc1NS(=O)(=O)c1ccc(-n2cccn2)cc1	-0.7%	2.3	3.4	0.8	i	-6.5	0.685	1.8	1.5
CCOc1ccc(/C=C2\SC(=S)N(NS(=O)(=O)c3ccccc3)C2=O)cc1OC	/	-15.0	-10.3	-2.4	i	/	0.667	0.7	-4.1
Cc1cc(C)n(C(C)CNC(=O)c2ccc3c(c2)OCO3)n1 (stereo not drawn)	/	5.7	3.6	0.2	i	-2.7	0.704	0.5	-2.3
O=C(NCCOc1ccc(F)cc1)C1CCN(S(=O)(=O)c2ccccc2)CC1	2.1%	-8.0	-7.9	2.2	i	2.6	0.701	-0.7	-4.1
COC(=O)c1sc(N)c(C(=O)OC)c1COC(=O)c1c(C)noc1C	2.4%	/	/	/	/	-16.8	0.721	/	0.1
Cc1cc(C)cc(NC(=O)Nc2ccc(N3CCCCC3)cc2)c1	/	-4.3	0.2	-0.9	i	4.1	0.656	2.1	0.7
COc1ccc([N+](=O)[O-])cc1C(=O)NC1CCN(Cc2ccccc2)CC1	/	22.5	18.8	2.2	i	-12.8	0.634	-1.2	4.0
COc1ccc(NC(=O)N(C)C[C@@H]2Oc3ccc(NC(=O)C4CC4)cc3C(=O)N([C@H](C)CO)C[C@@H]2C)cc1	/	0.1	16.3	3.0	i	/	/	-3.4	/
C[C@@H]1CN([C@H](C)CO)C(=O)c2cc(C#CC3CCCC3)cnc2O[C@H]1CN(C)S(C)(=O)=O	/	0.3	-0.4	-4.7	i	/	/	-1.5	/
Cc1nc2ccc(S(=O)(=O)NCC(=O)NCc3ccc(Cl)cc3)cc2s1	/	1.3	2.7	9.4	i	4.2	0.613	-5.7	-0.6
CCOc1ccc(S(=O)(=O)NC2CCCC2)cc1	/	9.5	3.9	1.3	i	-4.0	0.69	0.1	1.9
C[C@H](CO)N1C[C@H](C)[C@H](CN(C)C(=O)C2CCCCC2)OCCCC[C@H](C)Oc2ccc(NC(=O)Nc3ccc(C(F)(F)F)cc3)cc2C1=O	/	2.2	10.1	-2.4	i	/	/	-1.4	/
Oc1ccc(-c2csc(Nc3ncccn3)n2)cc1	/	-16.6*	0.1*	3.1*	i	13.6	/	-2.1	1.2
O=C(Nc1cc(Cl)cc(Cl)c1)C(NCCO)c1ccccc1 (stereo not drawn)	1.1%	/	/	/	/	2.7	0.669	/	-2.5
Cc1ccc(-n2c3c(cc(C(=O)NC4CCSC4=O)c2=O)C(=O)CC(C)(C)C3)cc1 (stereo not drawn)	32.7%	8.1&2.8	-0.3&7.9	1.3&-0.2	i	-1.1	0.687	-41.1	-0.7
COc1ccc(CCN2CC(C(=O)NCC(c3ccccc3)N(C)C)CC2=O)cc1OC (stereo not drawn)	98.9%	0.3	0.8	0.3	i	0.8	0.681	-8.3	-0.3
COc1ccc(/C=C/C(=O)NCC(=O)N/N=C/c2cccnc2)cc1	31.1%	5.4	2.4	-1.8	i	-25.2	/	-2.2	-2.5
O=S1(=O)CCOC[C@H](CC2CCCCC2)N1Cc1ccccc1F	/	-43.2	-77.0	-16.4	i	-1.1	/	-1.8	-2.5
Cc1ccc(S(=O)(=O)N2CCC3(CC2)OCCN3S(=O)(=O)c2cccs2)cc1	-5.5%	-7.6	-9.0	9.1	i	-3.1	0.64	-8.3	4.0
CCOc1c2ccc(C(=O)NCCc3ccc(C)cc3)cc2nn1CC	0.6%	-23.8*	-4.6*	5.6*	i	-6.0	/	-17.9	0.8
COC(=O)c1ccc(C)c(NC(=O)CCSc2ccccc2)c1	?	/	/	/	/	-8.3	0.788	/	0.1
CN1C(=O)c2cc(NC(=O)Cc3cccs3)ccc2OC[C@@H]2O[C@@H](CC(=O)NCCCN3CCOCC3)CC[C@@H]21	/	0.3	3.9	-1.6	i	/	/	-0.2	/
CC(=O)c1cc2c(cc1NC(=O)C1CC=CCC1C(=O)O)OCO2 (stereo not drawn)	?	/	/	/	/	/	0.734	/	2.8
CC1CCN(c2nc3c(c(=O)n(C)c(=O)n3C)n2CCSc2nc3ccccc3s2)CC1	-4.0%	/	/	/	/	-3.9	0.71	/	1.8
Cc1ccc(C)c(C(=O)CN2Cc3ccccc3C2=O)c1	15.9%	7.4	4.3	2.6	i	-0.6	0.684	-0.6	1.9
CCCC(=O)c1ccc(N2CCC(C)CC2)c(F)c1	1.2%	5.5	10.1	2.0	i	-0.1	0.682	-1.1	0.4
CCc1ccccc1NC(=O)COc1ccc(N2CC(C(N)=O)CC2=O)cc1 (stereo not drawn)	-6.2%	5.3	8.3	-2.3	i	/	0.705	-2.0	1.4
Cc1ccc(C(=O)CSc2nnc(COc3ccc(C#N)cc3)n2-c2ccccc2)cc1	-1.0%	/	/	/	/	4.2	0.71	/	-0.8
Cc1cc(C(=O)N2CCN(c3ncccn3)CC2)sc1-c1ccccc1	-47.2%	/	/	/	/	-4.1	0.653	/	-0.3
COc1ccc(F)cc1-c1cc(C(=O)Nc2cccnc2)[nH]n1	/	-7.6	-2.3	0.3	i	/	/	-0.8	-0.8
CSc1ccccc1NC(=O)COC(=O)c1ccc(O)cc1	4.3%	-26.4	-22.6	-6.3	i	-1.1	0.696	-1.8	3.3
CCOC(=O)C1(Cc2ccccc2)CCCN(Cc2cnn(CC)c2)C1 (stereo not drawn)	11.4%	7.0	8.3	-1.2	i	-16.7	0.652	-2.3	4.0
O=C1COc2ccc(S(=O)(=O)NCc3ccccc3)cc2N1	-2.6%	-5.3	4.0	-3.1	i	/	0.686	-4.5	1.9
CCCCS(=O)(=O)N1CCCC(C(=O)N2CCOCC2)C1 (stereo not drawn)	69.2%	10.0	8.3	0.0	i	-5.9	0.69	5.3	3.0
Fc1ccc(N/N=C2/CCSc3sccc32)c(F)c1	/	6.7	7.8	-0.1	i	/	/	3.1	-1.2
COc1ccc(NC(=O)Nc2ccc3c(c2)C(=O)N([C@@H](C)CO)C[C@@H](C)[C@@H](CN(C)C(=O)Nc2c(C)noc2C)O3)cc1	/	0.2	3.4	0.2	i	/	/	-4.3	/
Nc1nc(NC(=O)c2ccccc2)nn1-c1ccccc1	-1.9%	-1.9	0.1	1.8	i	-8.3	0.645	-1.5	1.6
COc1cccc(NC(=O)Nc2nnc(Cc3ccc(F)cc3)s2)c1	-1.1%	11.3	15.2	1.0	i	-7.0	0.64	-7.7	-4.0
FC(F)(F)c1cc(C(F)(F)F)n2nc(-c3sccc3-n3cccc3)cc2n1	19.3%	/	/	/	/	8.1	0.743	/	-1.2
CCC(C)C(=O)OCC1(c2ccc(C)cc2OC(=O)C(C)C)CO1 (stereo not drawn)	/	/	/	/	i	-7.7	/	2.0	-1.3
COC(=O)c1cccc(-n2c(CCC(=O)O)ccc2-c2cccs2)c1	14.1%	-2.9	-2.8	2.1	i	36.0	0.717	-2.3	-14.8
COc1cc(CNc2ncc(-c3ccc(Br)cc3)n2C)cc(OC)c1OC	-18.1%	-19.5*	-8.3*	-0.9*	i	90.7*	0.674	12.0	-0.2
Cc1c(O)ccc(-c2[nH]ncc2-c2nc3ccccc3s2)c1O	3.1%	/	/	/	/	88.6*	0.688	/	-2.6
Cc1cccc(C)c1NC(=O)CN(C)C(=O)c1ccc(NS(=O)(=O)c2ccc3[nH]c(=O)[nH]c3c2)cc1	-4.2%	14.6	11.0	0.3	i	/	0.694	0.2	1.2
Cc1ccc(NC(=O)c2ccc(F)cc2)cc1S(=O)(=O)N1CCCCCC1	/	-26.0	-39.4	17.0	i	-1.3	0.66	-0.1	-1.4

Next part
SMILES	Vif A3G	rRNA inh HTS	rRNA inh HTS OD600	rRNA inh HTS RFP	FGF22 binding	ALR H2O2 inh	Ecoli growth	AF4-AF9 inh	HNF4A DNA FP
O=C(O)CCn1cc(/C=C\C(=O)c2ccc(Cl)cc2)c(-c2cccc(Br)c2)n1	25.5%	/	/	/	/	?	0.682	/	-2.8
CSc1cccc(NC(C)C(=O)NCc2ccccc2)c1 (stereo not drawn)	-6.2%	-13.3	-9.9	-1.8	i	38.8	0.726	3.8	-0.6
CC(C)(C)C(=O)Nc1ccc(C(=O)Nc2cc(NC(=O)c3ccc(NC(=O)C(C)(C)C)cc3)cc(C(=O)O)c2)cc1	/	5.3	0.3	3.3	i	26.1	0.65	1.7	0.0
O=C(O)c1ccc(OCCCCCCOC2CCCCO2)cc1 (stereo not drawn)	-6.6%	-5.4	1.7	0.7	i	3.5	0.681	-8.6	0.4
O=C(Nc1cc(C(F)(F)F)ccc1N1CCCCC1)C1=COCCO1	/	5.7	-4.2	2.0	+	/	/	0.4	1.0
